GIV Gai3 FP = inhibitors of GIV peptide binding to Galpha-i3, primary screen, biochemical, fluorescence polarization, FITC-GIV GBA peptide, rat Galphai3; Guanine nucleotide-binding protein G(i) subunit alpha-3 (Rattus norvegicus), P08753; 90 min; hits give low values; scaled: aluminum fluoride 0%, vehicle 100%; percent of control (FP), % (concentration not given with the values); 210,000 tested, 0.42% active;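 active = replicate mean at 85% of control or lower, very high polarization wells dropped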;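 also: wells of about 15 µL received 100 nL stock; the first replicate is given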
Target sequence (P08753 whole entry, looked up): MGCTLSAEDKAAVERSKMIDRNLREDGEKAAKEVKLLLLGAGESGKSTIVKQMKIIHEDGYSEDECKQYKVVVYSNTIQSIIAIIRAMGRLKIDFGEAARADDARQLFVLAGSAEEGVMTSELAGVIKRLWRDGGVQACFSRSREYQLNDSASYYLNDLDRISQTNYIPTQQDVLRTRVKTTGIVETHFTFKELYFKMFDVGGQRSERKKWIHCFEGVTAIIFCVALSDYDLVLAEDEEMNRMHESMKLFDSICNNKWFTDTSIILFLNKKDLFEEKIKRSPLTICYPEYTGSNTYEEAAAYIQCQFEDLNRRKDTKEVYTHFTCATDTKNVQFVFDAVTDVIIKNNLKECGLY
HCMV UL50-53 inh = inhibitors of HCMV UL50-UL53 interaction, biochemical, HTRF; normalized percent inhibition; inhibition, % (no concentration beside the values); 190,000 tested, 0.15% active; AID 1918969, 2023;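 active = both replicates at 50% or more, plus weaker picks with an unusually low signal ratio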;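 also: stock transfer was 100 nL into about 20 µL; 0% = negative control wells and 100% = wells with untagged competitor protein; inactives centre near -12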
Sa growth inh = S. aureus growth inhibition at 42 and 30 °C, primary screen, LtaS inhibitor project, RN4220, two temperatures | OD600, 20 h, 42 °C; hits give low values | relative growth, % (no concentration beside the values) | 170,000 tested, 0.53% active;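 active = growth at 42 °C up to 50% and 20 or more points under that at 30 °C, or under 10% at both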;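 also: 300 nL library stock went into each well; scaled to the means of positive and negative controls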
Sa growth inh second temp = recorded beside Sa growth inh, whose call it bears; relative growth, %; measured here: growth at 30 °C;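 optical density after 20 h as mean of two plates; 100% = untreated growth and lower means inhibition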
Starred values were filed as active, the others as inactive; . = not tested or not shown; & = joins results of further samples. Rows were taken by chance. About 0.82% of those tested had a hit in this group.

SMILES	GIV Gai3 FP	HCMV UL50-53 inh	Sa growth inh	Sa growth inh second temp
COc1ccc(-c2cc(C(F)(F)F)nc(N3CCCCCC3)n2)cc1	106	.	100	83
CC(=O)OCCCn1c(C)nc2cc(Cl)ccc21	.	-8	103	80
c1ccc(CCNc2nc3ccccc3[nH]2)cc1	105	8	105	85
COc1cc2c(=O)[nH]c3c(C(N)=O)sc(=S)n3c2cc1OC	99	-8	.	.
CCCCN(C(=S)Nc1ccc(C)cc1)C1CCN(C(C)=O)CC1	101	-26	89	94
O=C(NC1CCS(=O)(=O)C1)c1ccc(CN2C(=O)CCn3nc(-c4cccc(Cl)c4)cc32)cc1 (centres undefined)	105	7	.	.
Cc1ccc(C)c(S(=O)(=O)Nc2cc(C(=O)O)cnc2N(C)C)c1	86	-35	.	.
COc1ccc(OC(=O)c2cn(-c3cccc(OC)c3)c(=O)c3ccccc23)cc1	107	.	95	87
CCN(CC)C(=O)C1(P(=O)(c2ccccc2)c2ccccc2)CC1	.	6	94	93
O=C(NCc1ccccc1)N1CCSc2ccccc21	108	.	124	92
NS(=O)(=O)c1ccc(CCNCc2ccc3c(c2)OCO3)cc1	98	-15	94	84
COc1ccc2[nH]cc(CCNC(=O)c3ccc4ccccc4n3)c2c1	107	-30	.	.
CCOC(=O)c1c(NC(=O)c2ccc(S(=O)(=O)N3CCC(C)CC3)cc2)sc2c1CCN(CC)C2	117	.	105	71
CCc1ccc(N(CC)C(=O)Cn2nc(Cc3cccnc3)c3ccccc3c2=O)cc1	102	-33	115	78
Cc1ccc(NC(=O)c2cc(C(C)C)[nH]n2)cc1	106	.	88	87
Cc1noc(-c2ccc(-c3noc(-c4ccc(Cl)cc4)n3)cc2)n1	108&98	.	106	93
O=C1N/C(=N/S(=O)(=O)c2ccccc2)S/C1=C/c1ccccc1O	120	-49	34	59
CCCSc1nsc(NC(=O)CN2C(=O)COc3ccccc32)n1	.	-16	96	93
O=c1oc(-c2cccs2)nc2sc3c(c12)CCCC3	102	-20	95	89
Cc1c(NC(=O)NCc2cccnc2)sc2nc3n(c(=O)c12)CCC(C)CC3 (centres undefined)	108	-7	102	86
CC(C)CCNS(=O)(=O)c1ccc(-c2ccc(S(=O)(=O)NCCC(C)C)cc2)cc1	99	.	127	89
CCN(CC)S(=O)(=O)c1ccc2c(c1)C(=O)c1cc(S(=O)(=O)N(CC)CC)ccc1-2	103	-19	102	92
Cc1nnc(-c2cn(CC(=O)Nc3ccc(S(N)(=O)=O)cc3)c3ccccc23)o1	99	-1	.	.
Cc1ccc(Sc2c(C)nn(C(C)(C)C)c2OC(=O)C(C)(C)C)cc1	101	-6	132	92
CC1(C)c2ccccc2N2CC(=O)NC21/C=C/c1ccc(F)cc1 (centres undefined)	101	-19	86	89
CCc1ccc(CNC(=O)Cn2ccc3cc(S(=O)(=O)N4CCCCCC4)ccc32)cc1	106	.	105	102
O=C(CSc1nc2ccccc2[nH]1)N/N=C/c1ccccc1O	101	-10	84	86
Cc1cccc(N2CCN(c3ccc(NC(=O)c4ccccc4)cc3C(=O)O)CC2C)c1 (centres undefined)	100	.	93	83
COc1ccc(-c2nnc(NC(=O)c3ccc(C(=O)c4ccccc4)cc3)s2)c(OC)c1	102	-9	.	.
S=c1[nH]nc(-c2ccncc2)o1	97	-11	83	77
Cc1cccc(NC(=O)C2CCN(S(=O)(=O)c3ccc4c(c3)C(C)(C)C(=O)N4C)CC2)c1	106	-8	.	.
O=C(Cn1c(=O)c2cccn2c2cccnc21)NCc1cccc(F)c1	102	.	127	103
CCc1nnc(SCC(=O)N(CC)c2ccccc2)c2cc3oc(C)cc3n12	103	.	121	95
CC(C)c1nc2nc(N)nc(N)c2nc1C(C)C	.	-4	110	70
NCCSC(=S)NC1CCCCCCC1	98	11	103	90
COc1ccccc1-n1cnc2cc(C(=O)NC3CCCC3)ccc21	102	.	106	92
CCc1ccc(NC(=O)CNS(=O)(=O)c2cccc3nonc23)cc1	100	-14	95	78
CCSc1nn2cc(-c3ccccc3Cl)nc2s1	.	-2	88	96
Cc1cc(C)n(-c2cc(C(=O)O)ccc2C)n1	100	21	93	81
COc1ccccc1CNc1cc(-c2ccccc2)nc2nncn12	104	-12	91	71
OCC(O)/C=N/Nc1nc(Nc2ccccc2)nc(N2CCCCC2)n1 (centres undefined)	100	-6	105	47
CCc1ccc(S(=O)(=O)c2cn(CC(=O)Nc3ccc(F)c(Cl)c3)c3ccccc3c2=O)cc1	105	-34	110	78
COc1ccc(NC(=O)c2cnn(-c3ccccc3)c2)cc1OC	101	-26	.	.
CC(C)c1ccc(NC(=O)CSc2ncc3c(n2)CC(C)(C)CC3=O)cc1	100	-8	93	88
COc1ccccc1Nc1sc(C(=O)c2ccc(F)cc2)c(N)c1S(=O)(=O)c1ccc(C)cc1	102	.	111	97
Cc1cc(C)c2c(-n3cccc3)nn(Cc3ccc(C(=O)NC(C)C)cc3)c2n1	110	-28	.	.
O=[N+]([O-])c1ccc(Cl)c(N=Cc2nc(-c3ccccc3Br)oc2O)c1	102	-18	.	.
C=CCC1(O)CC(c2ccccc2)NC(c2ccccc2)C1CC (centres undefined)	.	-9	101	86
COc1cccc(CNC(=O)CN(C)S(=O)(=O)c2ccc3c(c2)c(=O)n(C)c(=O)n3C)c1	100	-16	93	89
NCC(O)c1ccc2ccccc2c1 (centres undefined)	100	-24	.	.
CCOCCCNC(=O)NCCn1nnc2cc(C(=O)N(C)C)ccc21	105	4	.	.
C=C(C)COc1c(Cl)cc(C#N)cc1OC	109	1	106	101
Cc1cccc(-n2c(C)cc(CNC(=O)NC(C)C)c2C)c1	130	-26	103	82
COc1ccc(/C=N/n2cnnc2SC)cc1OC	104	-90	103	97
Clc1ccc(CSC2=NCCCN2)cc1Cl	.	13	113	93
O=C(c1ccccc1O)N1N=C(c2ccncc2)CC1(O)C(F)(F)F (centres undefined)	101	-23	.	.
COc1ccc(CCC(=O)NCc2ccc3c(c2)CCN3C(=O)c2ccc(C)cc2)cc1	106	.	132	88
O=C(COC(=O)c1ccc(F)cc1)NCc1ccc(F)cc1	.	21	102	101
CCc1ccc(CNC(=O)c2ccc(-c3nc(CS(=O)(=O)c4ccccc4)c(C)o3)cc2)cc1	109	.	134	91
COc1ccccc1NC(=O)N(Cc1nnc2n1CCCCC2)c1ccc(F)cc1	96	.	85	88

The results go on:
SMILES	GIV Gai3 FP	HCMV UL50-53 inh	Sa growth inh	Sa growth inh second temp
CS(=O)(=O)/C(C#N)=C/c1cccn1-c1ccc(C(F)(F)F)cc1	103	-36	122	97
CCN(CC(=O)NC1CCS(=O)(=O)C1)S(=O)(=O)c1ccccc1 (centres undefined)	.	-15	74	89
CCCc1cc(=O)[nH]c(SCCSC)n1	.	-20	92	86
COc1ccc(NC(=O)c2ccc3c(=O)n4nc(Nc5ccccc5C)sc4nc3c2)cc1Cl	102	.	122	90
Cc1cc(C)cc(NC(=O)CCCc2nnc3n(CCC(C)C)c(=O)c4sccc4n23)c1	104	-9	.	.
Cc1cc(=O)oc2cc(OCC3CC(c4ccccc4)=NO3)ccc12 (centres undefined)	107	.	114	89
CCn1c(C(=O)O)c(N2CCCC2=O)c2cc(F)ccc21	103	-10	.	.
COCCCNc1oc(-c2ccccc2Cl)nc1C#N	104	-23	121	93
CCn1c(C=Nc2ccccc2)nc2ccccc21	105	.	116	86
CCOc1ccc(CN(C)C(=O)c2ccc3ccccc3n2)cc1	.	4	115	94
CC(C)c1ccc(-n2ccn3c(=S)[nH]nc3c2=O)cc1	106	-32	.	.
O=C(O)c1ccc(N2C(=O)c3[nH]nc(-c4ccccc4)c3C2c2ccccc2)cc1 (centres undefined)	106	20	.	.
O=c1[nH]ncc(NCc2ccccc2)c1Cl	.	-15	108	77
Cc1ccc(NC(=O)C2CCCN2S(=O)(=O)c2ccc3nc(-c4ccccc4)[nH]c3c2)cc1C (centres undefined)	112	.	84	98
c1ccc(-c2csc(-c3ccc4c(c3)OCCO4)n2)cc1	103	-28	42	53
Cc1ccc2nc(N3CCN(c4ccccc4)CC3)c3nnnn3c2c1	104	.	107	101
c1ccc(CCNc2c3c(nc4nncn24)CCC3)cc1	107	-21	.	.
COCC(C)n1c(SCc2nc3ccccc3c(=O)[nH]2)nc2ccccc2c1=O (centres undefined)	.	-10	98	94
Cc1cc(NS(=O)(=O)N2CCOCC2)no1	101	-11	113	88
Cc1ccc(C(=O)NC(C)c2ccccc2)cc1-n1nnc2cccnc21 (centres undefined)	110	13	.	.
Cc1cccc(N2CCN(C(=O)Nc3ccccc3F)CC2=O)c1C	99	-2	103	89
c1nc(NCc2ccc3c(c2)OCO3)c2nc3n(c2n1)CCCCC3	99	.	97	69
O=c1[nH]c(CN2CCN(CC3CCCO3)CC2)nc2cc(-c3ccc(Cl)cc3)sc12 (centres undefined)	.	-38	91	84
CCc1nnc(NC(=O)Nc2ccccc2Cl)s1	106	-1	.	.
CC1(C)CC2CC(C)(CN2CC(O)COCc2ccccc2F)C1 (centres undefined)	.	-6	104	89
O=C(CCCC(=O)Nc1cccc2ccccc12)Nc1cccc2ccccc12	.	-11	99	94
Cc1cccc(Cn2c(C)c(CNCCc3ccc(S(N)(=O)=O)cc3)c(C(=O)O)c2C)c1	101	-28	.	.
COc1ccc2[nH]c(=O)c(CN(C)S(=O)(=O)c3ccc(C)cc3)cc2c1	102	-14	82	83
O=C1CCCN1CCCNc1nc2c(S(=O)(=O)c3ccc(Br)cc3)nnn2c2ccccc12	95	-2	92	79
COC(=O)c1ccc(CSc2nc3ccccc3s2)o1	.	-4	89	96
CC(/C=C1\SC(N(C)c2ccc(O)cc2)=NC1=O)=C\c1ccccc1	110	.	72	81
Cc1nc(C)c(-c2ccn(S(=O)(=O)c3ccc(Cl)cc3)n2)o1	103	-3	99	98
COc1cc2c(cc1OC)CN(C(=O)/C=C/c1ccc(OCc3c(C)noc3C)c(OC)c1)CC2	.	-35	66	85
O=C(CSc1nc2c(c(=O)n1CCc1ccccc1)SCC2)Nc1nccs1	107	.	95	86
CCC(C(=O)O)N1C(=O)COc2ccccc21 (centres undefined)	.	-3	89	80
CNC(=O)Nc1cc2c(cc1N1CCCC1)n(C)c(=O)n2C	102	-6	.	.
O=C(O)CSc1nc2cc(C(F)(F)F)ccc2n1Cc1ccccc1	.	-22	108	87
CC1CN(C(=O)NCc2ccccc2)c2ccccc2S1 (centres undefined)	104	-11	105	94
O=C(Nc1ccccc1)c1ccc(F)cc1	103	-42	108	105
O=C(NCCCCCNC(=O)c1cccnc1)c1cccnc1	97	-15	.	.
CCOC(=O)c1ccc(NC(=O)c2sc(=S)n3c2[nH]c(=O)c2cc(Cl)ccc23)cc1	135	26	.	.
COC(=O)c1cc2oc3ccccc3c2n1CC(=O)N(C)c1ccccc1	103	.	105	88
CCNc1nc2ccc(Cl)cc2nc1NCC	104	-5	75	52
O=C(CSCc1ccc(Cl)c(Cl)c1)Nc1ccc(F)cc1F	106	-8	90	86
CN(CCNC(=O)c1cc2c(=O)n(C)c3ccccc3c2s1)Cc1ccccc1	103	.	98	102
COc1ccc(CCn2c(SCC#N)nc3ccc(N4CCOCC4)cc3c2=O)cc1OC	108	-4	102	96
C=CCn1c(=S)sc2c(Sc3nnc(-c4ccco4)o3)ncnc21	100	-10	78	16
Nn1c(SCC(=O)N2CCCc3ccccc32)nnc1-c1ccccc1	107	-24	109	99
Cc1c(Cl)cccc1NS(=O)(=O)c1cn(C)c(C)n1	106	2	.	.
O=C1/C(=C/Nc2cccnc2)S(=O)(=O)N(Cc2ccccc2)c2ccsc21	104	-82	96	95
